RE007 growth inh – less growth of the S. pombe RE007 Vpr strain; S. pombe RE007 Vpr strain, BacTiter-Glo ATP luminescence, 24 h; control for the full effect not named in the record; AID 651644; 360,000 compounds, 0.21% hits; Potency, µM (titrated, usually from 92.2 µM), without a hit: at the top dose activity change, negative = less growth; active = well fitted falling curve with a large enough effect; inconclusive = small, poorly fitted or top-dose-only effect; inactive = no such curve, though single readings can be large or run the other way;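 further: on the % scale 0 is the no-effect control and ±100 the full control effect; nearly all actives have a fitted effect of over 50% in size; the assay follows cell death caused by Vpr and the record does not say whether a fall means rescue or toxicity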
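Fission yeast strain RE007, carrying one chromosomally integrated HIV-1 vpr copy, was seeded at OD 0.01 in PMG+AL medium with 23 nL pinned compound. After 24 h at 30 °C and 99% humidity, viability was read by BacTiter-Glo luminescence.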
Cruzain inh noDet – blocks cruzain activity in detergent-free assay. AID 1476. purified cruzain, Z-FR-AMC fluorescence, no detergent. 200,000 compounds, 2.3% hits. Potency, µM, for the others: max response, negative = inhibition, actives largely listed as inhibitors; active means well fitted curve in the direction sought with a large enough effect; inconclusive means small, poorly fitted or top-dose-only effect, or another doubt; inactive means no such curve, though single readings can be large; an effect the other way counts as inactive or inconclusive;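 further: plate controls were enzyme without inhibitor for no effect and buffer without enzyme for full effect; nearly all actives have a fitted effect of over 40% in size; top concentration of the series not given in the record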
Target sequence (P25779 123-467 limits assumed): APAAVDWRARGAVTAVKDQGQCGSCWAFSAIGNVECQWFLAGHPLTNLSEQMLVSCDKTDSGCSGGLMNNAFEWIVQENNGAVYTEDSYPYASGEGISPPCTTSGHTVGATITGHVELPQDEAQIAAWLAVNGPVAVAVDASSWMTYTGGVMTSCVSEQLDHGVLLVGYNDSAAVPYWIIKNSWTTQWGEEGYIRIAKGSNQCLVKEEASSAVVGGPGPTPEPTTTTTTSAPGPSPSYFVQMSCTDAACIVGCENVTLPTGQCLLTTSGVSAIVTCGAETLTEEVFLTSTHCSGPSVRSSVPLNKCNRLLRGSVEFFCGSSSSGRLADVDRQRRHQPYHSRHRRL
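Purified cruzain at 1.5 nM, pre-incubated 15 min with compound at room temperature in 100 mM sodium acetate pH 5.5, 5 mM DTT, 0.00005% Triton X-100. Reaction started with 2 uM Z-FR-AMC; AMC fluorescence increase over 60 s gives rate.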
Marburg entry inh – inhibitors of Marburg virus binding or cell entry; Potency, µM (top dose mostly 37.8 µM), without a hit: at the highest dose activity change, negative = inhibition, actives largely listed as inhibitors; Marburg virus pseudotyped entry inhibition, cell reporter; control for the full effect not named in the record; about a third of the inactives were read at about 46 µM; 300,000 compounds, 1.8% hits; active = well fitted inhibition curve with a large enough effect; inconclusive = small, poorly fitted or top-dose-only effect, or effect the other way; inactive = flat fitted curve, though single readings scatter; tested in HEK293 cells; about a fifth of its hits are not listed in these tables; further: on the % scale 0 is the no-effect control and ±100 the full control effect; luciferase read-out
SARS PLpro yeast – inhibitors of SARS-CoV papain-like protease in yeast; S. cerevisiae expressing SARS-CoV PLpro, growth rescue; control for the full effect not named in the record; Potency, µM (titrated, usually from 32.9 µM), for inactives: top-dose activity, positive = growth rescue; 330,000 compounds, 0.19% hits; AID 485353; further: 0% is about no effect; nearly all actives have a fitted effect of over 55% in size; growth read by luminescence after 48 h
NS1 inh – influenza NS1 inhibition; S. cerevisiae slowed by influenza A NS1, growth recovery by OD600; Potency, µM (highest dose often 46.1 µM), without a hit: at the top dose activity, positive = more growth; 270,000 compounds, 0.4% hits; further: actives are rising curves; nearly all actives have a fitted effect of over 50% in size
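S. cerevisiae expressing influenza A NS1, grown in glucose, washed, then diluted 1:100 into pH 6.0 -URA galactose medium with 23 nl compound. Growth recovery read as OD600; NS1-free strain serves as control.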
StopGo reporter – FMDV 2A StopGo reporter, luciferase signal | 410,000 compounds, 1.2% hits | AID 1159524 | human cells with a luciferase reporter of 2A StopGo recoding; control for the full effect not named in the record | Potency, µM (top dose mostly 57.9 µM), for the others: at the highest dose signal change, negative = less light; active = well fitted falling curve with a large enough effect; inconclusive = small, poorly fitted or top-dose-only effect; inactive = no such curve, though single readings can be large or run the other way; tested in HEK293T cells; further: on the % scale 0 is the no-effect control and ±100 the full control effect; nearly all actives have a fitted effect of over 45% in size; luciferase light after 4 h
Cruzain Triton – inhibitors of Trypanosoma cruzi cruzain with detergent; P25779; purified cruzain, Z-FR-AMC fluorescence, 0.01% Triton; Potency, µM, without a hit: max response, negative = inhibition, most hits filed as inhibitors; 200,000 compounds, 0.43% hits; AID 1478; active means well fitted curve in the direction sought with a large enough effect; inconclusive means small, poorly fitted or top-dose-only effect, or another doubt; inactive means no such curve, though single readings can be large; an effect the other way counts as inactive or inconclusive;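 further: plate controls were neutral wells for no effect and buffer without enzyme for full effect; nearly all actives have a fitted effect of over 40% in size; top concentration of the series not given in the record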
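Cysteine protease activity tested under reducing, mildly acidic conditions (100 mM sodium acetate pH 5.5, 5 mM DTT) plus 0.01% Triton X-100. Cruzain 1.5 nM; substrate Z-FR-AMC 2 uM; 15 min compound preincubation at room temperature.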
LASV entry inh – inhibitors of Lassa virus binding or cell entry. 300,000 compounds, 1.2% hits. Lassa virus pseudotype entry inhibition, cell reporter; control for the full effect not named in the record. Potency, µM (series often up to 37.9 µM), for the others: at the highest dose activity change, negative = inhibition, actives largely listed as inhibitors; active means well fitted inhibition curve with a large enough effect; inconclusive means small, poorly fitted or top-dose-only effect, or effect the other way; inactive means flat fitted curve, though single readings scatter; tested in HEK293 cells; further: on the % scale 0 is the no-effect control and ±100 the full control effect; nearly all actives have a fitted effect of over 50% in size; luciferase read-out
* = called active by the depositor; ? = inconclusive; · = not tested or not shown; & = joins results of further samples; [ ] = dose if it differs, or a comment. Unless noted, the call rests on the fitted dose curve; in most records, active means well fitted rising curve with a large enough effect; inconclusive means small, poorly fitted or top-dose-only effect; inactive means no such curve, though single readings can be large or run the other way. Potency means the concentration at half of the fitted maximal effect. The order is random; any-hit rate near 4.7%.

SMILES	RE007 growth inh	Cruzain inh noDet	Marburg entry inh	SARS PLpro yeast	NS1 inh	StopGo reporter	Cruzain Triton	LASV entry inh
Cn1c(=O)c2c(SCC(=O)Nc3nccs3)nc(C3CC3)nc2n(C)c1=O	1%	·	1%[46.1 µM]	-1%	0%	?	·	-9%
N#C/C(=C\c1ccccc1C(F)(F)F)C(=O)Nc1ccccc1	-4%	4%	-2%	-6%	-2%	22%	-3.5%	4%
Cc1ccc(C)c(N2CCN(C(=O)C3CCCN(S(=O)(=O)c4ccc5c(c4)oc(=O)n5C)C3)CC2)c1 (configuration not stated)	·	13%	?	·	·	16µM*	-0.6%	?
Oc1nc(Nc2ccccc2)sc1/C=C1\C=Nc2ccccc21	6%	·	·	-1%	2%	62%[activator]	·	·
O=C(OCC(=O)N1CCOCC1)C(c1ccccc1)c1ccccc1	-2%	24%	6%	-1%	-3%	-23%	4.5%	0%
O=C(COC(=O)c1ccc2c(c1[N+](=O)[O-])C(=O)c1ccccc1C2=O)NC1CC1	-15%	·	?	-2%	-51%	?	·	?
CCCn1nc(C(=O)NCC(C)(C)N2CCOCC2)c2ccccc2c1=O	5%	6%	0%[46.1 µM]	4%	-4%	-22%	3.3%	?
CC(C)(C)NS(=O)(=O)c1ccc(NC(=O)C2CC(=O)N(CCc3ccc(F)cc3)C2)cc1 (configuration not stated)	-5%	·	2%[46.1 µM]	1%	27%	38%[activator]	·	?
CCOc1cccc2sc(N(CCN(CC)CC)C(=O)c3ccc(S(=O)(=O)N4CCCC4)cc3)nc12	-21%	·	?	-1%	-9%	-10%	·	-6%
Cc1ccc2c([N+](=O)[O-])cccc2n1	4%	-10%	1%	5%	?	-8%	-0.5%	?
O=C(c1c(Cl)nc2sccn12)N(C(=O)c1c(Cl)nc2sccn12)c1ccc(Cl)cn1	5%	-2%	6%&-24%	2%	?	·	-4.9%	-30%
Cc1c(N=C/C=C2/N(C)c3ccccc3C2(C)C)c(=O)n(-c2ccccc2)n1C	?	-13%	?	5%	6%	-12%&-5%	-8.2%	?
OCCNc1nc(-c2ccccc2)nc2c1oc1ccccc12	3%	·	·	0%	-5%	-10%	·	·
COc1ccc(NC(=O)CC2C(=O)N(CCc3ccccc3)C(=S)N2Cc2cccnc2)cc1 (configuration not stated)	14%	?	?	-26%	-33%	-13%	-5.4%	?
Cc1ccc(C)c(NC(=O)CN(CCc2ccccc2)S(=O)(=O)c2ccccc2)c1	·	11%	·	·	·	-21%	-8.3%	-6%[46.1 µM]
CC1CCCCN1C(=O)c1ccc2c(c1)N(Cc1ccc(F)cc1)C(=O)c1ccccc1S2(=O)=O (configuration not stated)	·	?	-2%[46.1 µM]	·	·	3%	-0.9%	?
Cc1cccc(N2CCN(C(=O)Cn3nc(Cc4cccnc4)c4ccccc4c3=O)CC2)c1C	·	?	?	·	·	?	-6.0%	?
CC12CCC(O)CC1=CCC1C2CCC2(C)C3=NN=CC3CC12 (configuration not stated)	8%	·	?	·	·	27%	·	-10%[46.1 µM]
COc1ccc(-n2ncc3c(N4CCc5ccccc54)ncnc32)cc1	-8%	?	-19%	·	-6%	74%[activator]	-0.4%	31%[14.3 µM]
COc1ccc(CCNC(=O)CC(c2ccccc2)c2cc(C)ccc2O)cc1OC (configuration not stated)	3%	·	·	-2%	-5%	18µM*	·	·
Cc1ccccc1OCC1Cn2c(nc3c2c(=O)[nH]c(=O)n3C)O1 (configuration not stated)	-11%	8%	-12%	2%	7%	-23%	1.4%	-5%
Cc1c(NC(=O)c2cccnc2C(=O)O)cccc1C(=O)O	3%	8%	?	6%	-10%	-9%	-1.3%	0%
O=C(CN1C(=O)NC2(CCc3ccccc32)C1=O)c1c[nH]c2ccccc12 (configuration not stated)	29%	·	17%[46.1 µM]	2%	·	-10%	·	12%
Cc1nnc(N(Cc2ccco2)C(=O)c2ccno2)s1	1%	-8%	-4%[46.1 µM]	4%	-16%	0%	-2.9%	-11%
COC(=O)c1sccc1NC(=O)C1CC1	2%	·	?	0%	9%	-3%	·	-1%
CC(=O)N(c1ccccc1)c1nc(/C=C/C(=O)Nc2c(C)cc(C)cc2C)cs1	9%	1%	?	6%	2%	-27%	-0.5%	-2%
Cc1cccc(N=C(NO)c2nonc2N)c1	1%	-15%	-1%	10%	1%	-5%	-1.9%	0%
COc1ccc(CC(=O)NCc2nc(-c3ccccc3)no2)cc1	-12%	·	?	1%	-5%	-12%	·	2%[46.1 µM]
C=CCOc1ccc(/C=N/NC(=O)C(=O)N2CCCCCC2)cc1OC	-4%	·	14%[46.1 µM]	-1%	0%	19%	·	12%[46.1 µM]
COc1ccc(C2c3ccc(O)cc3Oc3ncn4nc(-c5ccccn5)nc4c32)cc1OC (configuration not stated)	7%	·	-11%[46.1 µM]	5%	-6%	0%	·	-20%
COc1ccc(C2CC(=O)c3cc(-c4nc(-c5cccc([N+](=O)[O-])c5)cs4)c(=O)n(-c4cc(C)cc(C)c4)c3C2)cc1 (configuration not stated)	·	-18%	-11%[46.1 µM]	·	·	-9%	-1.7%	-10%[46.1 µM]
CC1CCC(NC(=O)c2cccc(S(=O)(=O)N3CCN(c4ccc(F)cc4)CC3)c2)CC1 (configuration not stated)	18%	·	-2%	1%	·	14%	·	-3%
Cc1ccc(-n2c(=O)c3ccc(C(=O)NCc4ccco4)cc3n(Cc3ccccc3C#N)c2=O)cc1	-6%	-12%&-12%	13%[46.1 µM]	4%	4%	0%&6%	-1.5%&1.1%	-1%[46.1 µM]
CCCCCC(O)(c1ccc(OCC)cc1)C(CN1CCOCC1)c1ccccc1 (configuration not stated)	5%	·	?	-3%	2%	?	·	?
Clc1ccc(-c2nnc3ccccn23)cc1	0%	0%	?	-1%	-5%	-3%	1.8%	13%
CCCCC(C(=O)O)C(C)CC(=O)Nc1nccs1 (configuration not stated)	4%	·	3%	-1%	10%	-13%	·	·
CCN(CC)S(=O)(=O)c1ccc(C(=O)OCC(=O)c2ccc3c(c2)NC(=O)CO3)cc1	5%	-4%	-1%	5%	?	·	3.4%	4%
O=C1[C@@H]2Cc3c([nH]c4ccccc34)C(c3cccc([N+](=O)[O-])c3)N2C(=O)CN1CCCO (some centres not stated)	-8%	·	·	-1%	0%	1%	·	·
CCOc1ccc(NC(=O)CN(C)C(=O)c2cccnc2SC)cc1OCC	-1%	·	15%	1%	-4%	-7%	·	?
Cn1c(=O)c2c(nc(NCc3cccnc3)n2Cc2ccccc2Cl)n(C)c1=O	7%	·	·	1%	2%	-20%	·	·
CCCCC(=O)Nc1ccccc1CC	-1%	·	14%	-1%	0%	3%	·	?
Cc1ccc(-c2nc(CS(=O)(=O)CC(=O)NCCN3CCOCC3)c(C)o2)cc1	-6%	·	28%[46.1 µM]	-2%	9%	-3%	·	3%[46.1 µM]
Nc1ccc(Oc2ccc(Cl)cc2)cc1	11%	9%	8%	3%	-7%	11%	1.8%	-16%
CSCCC(NS(=O)(=O)c1ccc2c(c1)oc(=O)n2C)C(=O)NC1CCC(C)CC1 (configuration not stated)	0%	-3%	18%&18%	8%	?	-1%	2.2%	0%
NC(=O)/C=C\c1cn(-c2ccccc2)nc1-c1ccc2c(c1)OCCO2	-6%	?	-21%	18%	5%	0%	-11%	?
CCC(C)NC(=O)Cc1c(C)c2cc3c(cc2oc1=O)OC(C)(C)CC3 (configuration not stated)	-2%	·	?	-1%	-2%	14%	·	?
O=C1C2CCN(CC2)[C@@H]1Cc1ccc2ccccc2c1O	1%	6%	16%	7%	3%	52%[activator]	5.2%	3%
CC(C)[C@H](NC(=O)c1cccc(S(=O)(=O)N2CCCC2)c1)c1nc2ccccc2[nH]1	-11%	?	10%	-2%	3%	0%	3.3%	10%
CC1CCN(C(=O)c2[nH]cnc2C(=O)N[C@@H](C)C(=O)OCc2ccccc2)CC1	74%	·	·	-3%	5%	-29%	·	·
COc1ccccc1/C=C1\CCCC2=C1Nc1nnnn1C2c1ccccc1OC (configuration not stated)	·	-19%	?	15%	?	?	-3.6%	?
CN(Cc1ccccc1Cl)C(=O)C1CC(=O)N(c2ccc3c(c2)OCCO3)C1 (configuration not stated)	6%	·	-12%	2%	·	4%	·	-3%
COc1cc(OC)cc(C(=O)N2CCC3(CC2)NCCc2[nH]cnc23)c1	19%	·	-4%[46.1 µM]	-4%	3%	-10%	·	18%[46.1 µM]
CC1S/C(=N/N=C/c2ccco2)N(Cc2ccccc2)C1=O (configuration not stated)	-13%	·	·	-3%	3%	34%[activator]	·	·
Cc1cc(NC(=O)c2cccc(S(=O)(=O)N(C)C)c2)n(-c2ccccn2)n1	-8%	?	?	-2%	13µM*	-5%	7.1%	-6%
CCN(CC)S(=O)(=O)c1ccc2c(c1)nc(SCC(=O)N1CCCCCC1)n2-c1ccc(OC)cc1	6%	29%	?	3%	8%	32%[activator]	5.3%	?
COC(=O)c1cc(OC)c(OC)cc1NC(=O)CN1CCOCC1	-12%	-16%	?	-11%	-5%[9.22 µM]	-13%	1.5%	-2%
O=C(C1CCCN(S(=O)(=O)c2ccccc2)C1)N1CCN(c2ccc(F)cc2)CC1 (configuration not stated)	6%	·	-23%[46.1 µM]	1%	-14%	-29%	·	?
Cn1c(=O)c2c(nc(NCc3ccccc3)n2CC(N)=O)n(C)c1=O	-12%	·	·	0%	3%	-11%	·	·
COc1cc(/C=C2\COC/C(=C\c3ccc(O)c(OC)c3)C2=O)ccc1O	44%	·	?	-1%	-9%	18µM*	·	?

Source: PubChem
